Source: PubChem BioAssay
AID923 = qHTS Assay for Allosteric/Competitive Inhibitors of Caspase-1: Spectroscopic Profiling in AFC Spectral Region; compound fluorescence, AFC spectral region (405/520 nm); almost no hit is shown here; Potency, µM (highest dose often 57.5 µM), without a hit: at the highest dose fluorescence increase, hits mostly activators; 75,000 compounds, 1.1% hits; AID 923, 2007; active = well fitted activation curve with a large enough effect;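 note: 0% is about no effect; scaled to a free AFC standard on each plate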
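Baseline compound fluorescence (AFC region, 405 nm ex/520 nm em) taken from the intercept of kinetic reads with 50 nM caspase-1 and 5 uM Ac-WEHD-AFC; normalized to an on-plate AFC standard curve; compounds titrated up to 57 uM.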
Numbers without * were called inactive; & = joins results of further samples; [ ] = another dose, or the depositor's remark. Potency is the fitted concentration of half-maximal effect. Some of the compounds tested; count on the stated rates, not on these rows.

The opening 6 entries, to show the layout:
SMILES | AID923
N#CCCCSC1=C(C#N)C(c2ccccc2Cl)CC(=O)N1 (centres undefined) | 1.5%
Cc1cc(=O)[nH]c(SCC(=O)c2ccc(C)c(C)c2)n1 | 3.0%
COc1cc2c(cc1OC)C1C(=O)c3c(cc4c(c3O)C=CC(C)(C)O4)OC1CO2 (centres undefined) | -1.9%
CNC1C(O)C(O[C@H]2C(O)[C@@H](OC3OC(CN)=CCC3N)[C@H](N)C[C@@H]2N)OC[C@]1(C)O (some centres undefined) | -2.7%
CC12CN3CCN(CC(C3)C1(O)CN1CCOCC1)C2 (centres undefined) | -1.0%
COCCn1c(SCC(=O)Nc2cc(Cl)ccc2OC)nc2c(c1=O)SC(C)C2 (centres undefined) | -2.1%

The whole of this part (from the top)
SMILES | AID923
N#CCCCSC1=C(C#N)C(c2ccccc2Cl)CC(=O)N1 (centres undefined) | 1.5%
Cc1cc(=O)[nH]c(SCC(=O)c2ccc(C)c(C)c2)n1 | 3.0%
COc1cc2c(cc1OC)C1C(=O)c3c(cc4c(c3O)C=CC(C)(C)O4)OC1CO2 (centres undefined) | -1.9%
CNC1C(O)C(O[C@H]2C(O)[C@@H](OC3OC(CN)=CCC3N)[C@H](N)C[C@@H]2N)OC[C@]1(C)O (some centres undefined) | -2.7%
CC12CN3CCN(CC(C3)C1(O)CN1CCOCC1)C2 (centres undefined) | -1.0%
COCCn1c(SCC(=O)Nc2cc(Cl)ccc2OC)nc2c(c1=O)SC(C)C2 (centres undefined) | -2.1%
Cc1ccc(Cl)cc1NC(=O)Cn1cc2c(n1)CCCC2 | -4.8%
C[C@H]1C[C@]2(O[C@@H]2C)C(=O)O[C@@H]2CCN(C)C/C=C(/COC(=O)[C@]1(C)O)C2=O | -1.8%
COc1ccc(CC/C(=N\O)C2(O)CCCCC2)cc1 | 0.0%
CCCS(=O)(=O)N1CCN(C(=O)c2ccc(-c3ccccc3)cc2)CC1 | -1.1%
CCn1c(C(=O)N2CCC(Cc3ccccc3)CC2)cc2sccc21 | 3.5%
CC1(C)OC2CC3C4CCC5=CC(=O)C=C[C@@]5(C)[C@]4(F)C(O)C[C@@]3(C)[C@]2(C(=O)CO)O1 (some centres undefined) | 1.2%
O=C(Cn1cc2c(n1)CCCCC2)NCc1ccccc1 | -1.1%
CC(=O)OC1CC[C@@]2(C)C3CC[C@@]4(C)C(CC5O[C@@]6(CCC(C)CO6)C(C)C54)C3CC[C@@H]2C1 (some centres undefined) | 1.7%
COC(=O)c1ccc(C23CC4(C2)[C@H](CN(Cc2ccc(C(F)(F)F)cc2)[C@@H]4c2ccccc2)C3c2ccc(Cl)nc2)cc1 (some centres undefined) | 4.3%

Rewritten as labelled records: entries from further up.
> CC12CN3CCN(CC(C3)C1(O)CN1CCOCC1)C2 (centres undefined)
  AID923 = -1.0%
> COCCn1c(SCC(=O)Nc2cc(Cl)ccc2OC)nc2c(c1=O)SC(C)C2 (centres undefined)
  AID923 = -2.1%
> Cc1ccc(Cl)cc1NC(=O)Cn1cc2c(n1)CCCC2
  AID923 = -4.8%
> C[C@H]1C[C@]2(O[C@@H]2C)C(=O)O[C@@H]2CCN(C)C/C=C(/COC(=O)[C@]1(C)O)C2=O
  AID923 = -1.8%

(cont.)
SMILES | AID923
O=c1cc(-c2cccc(O)c2)oc2cccc(O)c12 | -1.0%
CN(CCc1ccc(Cl)c(Cl)c1)CCN1CCCC1 | -1.5%
COc1ccc(-n2c3c(cc(C(=O)N4CCN(CCO)CC4)c2=O)C(=O)CC(C)(C)C3)cc1 | -1.1%
CC(C)=CCC/C(C)=C/COc1ccc2ccc(=O)oc2c1 | 1.6%
COc1ccc(C2C=C(c3ccccc3)Nc3nnnn32)cc1 (centres undefined) | 3.8%
CCC1=C(OC(=O)N(CC)CC)N2C(=O)OC(=NCC3CC3)[C@]2(C)[C@H]2C1=CC[C@H]1C(=O)N(CC(=O)OC)C(=O)[C@H]12 | 1.5%
CCOc1ccc(/C=C/C(=O)c2cccs2)cc1 | 8.3%
O=C1CC(c2ccc(O)cc2)Oc2ccccc21 (centres undefined) | -2.2%
COC(=O)c1cccc(C23CC4(C2)[C@H](CN(Cc2ccc(-c5ccccc5)cc2)[C@@H]4c2ccccc2)C3c2ccc(Cl)nc2)c1 (some centres undefined) | -1.2%
CC(=O)OC1CC[C@]2(C)C(CC(OC(C)=O)[C@]3(C)C2CC[C@@]2(C)C(c4ccoc4)OC(=O)C4O[C@]432)C1(C)C (some centres undefined) | -0.9%
CS(=O)(=O)c1ccc(C2=C(c3ccccc3)C(=O)OC2)cc1 | -0.5%
Cn1c(-n2c(CCN3C(=O)c4ccccc4C3=O)nc3ccccc3c2=O)nc2ccccc21 | 5.7%
COC(=O)[C@@H]1C[C@@]2(O)[C@@H](O)[C@@H](O)[C@@H](O)C[C@H]2N1Cc1cc(OC)cc(OC)c1 | 1.4%
Cc1cc(O)cc(=O)o1 | -4.0%
CC(C)c1ccc(NC(=O)C(c2ccccc2)N2CCOCC2)cc1 (centres undefined) | -4.2%
C=C[C@]1(C)CC(=O)[C@@]2(O)[C@@]3(C)C(O)CCC(C)(C)C3C(O)C(OC(C)=O)[C@@]2(C)O1 (some centres undefined) | -0.3%
CC(=O)Nc1c(Cl)n(C(C)=O)c2ccccc12 | 1.4%
CC(C)CCCNc1nc(N2CCOCC2)nc(N2CCOCC2)n1 | -0.4%
N#Cc1ccc(C23CC4(C2)[C@H](CN(P(=O)(c2ccccc2)c2ccccc2)[C@@H]4c2ccccc2)C3c2ccc(Cl)nc2)cc1 (some centres undefined) | 2.4%
COc1ccccc1OCC(O)CN1CCN(CC(=O)Nc2c(C)cccc2C)CC1 (centres undefined) | -3.1%
CC1(C)C=Cc2cc3ccc(=O)oc3cc2O1 | 3.4%
O=S(=O)(c1ccc2ccccc2c1)N1CCCCC1 | -1.4%
c1ccc2c(c1)CN1CCCC1=N2 | -0.4%&-0.3%
Oc1ccc(C2Oc3cc(O)cc(O)c3CC2O)cc1 (centres undefined) | 0.4%
CC(=O)C1CCC2C3CCC4=CC(=O)CC[C@@]4(C)C3CC[C@]12C (some centres undefined) | 1.8%
Cc1cccc(OCCCCCn2ccnc2)c1 | -1.4%
Cc1onc(-c2ccccc2)c1C(=O)N1CCCc2ccccc21 | -0.1%
CC(=NCCc1ccccc1)C1=C(O)COC1=O | 3.3%
C[C@]12CCC3c4ccc(OC(=O)c5ccccc5)cc4CCC3C1CCC2=O (some centres undefined) | 0.8%
COc1ccc(Cc2nc(-c3ccc(-n4cccc4)cc3)no2)cc1 | 1.9%
CCCC1CC(C(=O)N[C@H](C(C)O)C2OC(SC)[C@@H](O)C(O)C2O)N(C)C1 (some centres undefined) | 1.2%
COc1cc(S(=O)(=O)NCc2ccc3c(c2)OCO3)ccc1Cl | -0.6%
Cn1c(C(=O)N2CCc3ccccc3C2)cc2oc3ccccc3c21 | 1.4%
CC(C)Cn1c(N)c(C(=O)COC(=O)c2cc(C(F)(F)F)nc3c(C(F)(F)F)cccc23)c(=O)n(C)c1=O | 1.5%
CCOc1cc(-c2nnc(-c3ccco3)o2)cc(OCC)c1OCC | -3.8%
CC(=O)OC1C[C@@]2(C)C(c3ccoc3)OC(=O)C3O[C@@]32[C@]2(C)C(OC(C)=O)CC3C(C)(C)C(OC(C)=O)CC(OC(C)=O)[C@@]3(C)C12 (some centres undefined) | -0.1%
CC(=O)Oc1cc(OC(C)=O)c2c(c1)OC(c1ccc(OC(C)=O)c(OC(C)=O)c1)C(OC(C)=O)C2 (centres undefined) | 0.1%&-4.8%
Nc1ncnc2c1nc(Br)n2C1CC(O)C(CO)O1 (centres undefined) | -1.2%
CC(C)C(C)/C=C/C(C)C1CCC2C3=CCC4CC(=O)CC[C@@]4(C)C3CC[C@]21C (some centres undefined) | -0.6%
NC(Cn1ccc(=O)c(O)c1)C(=O)O (centres undefined) | 1.1%
COC(=O)N/N=C/C1=C[N+](=O)c2ccccc2[N+]1=O | 9.8%
CCC1=C2CC[C@H]3C(=O)N(CC)C(=O)[C@H]3[C@H]2[C@@]2(Cc3ccccc3)C(=O)N(Cc3ccccc3)C(=O)N2C1=O | -1.3%
COc1cc(OC)c2c(c1Cl)OC1(C2=O)C(O)=CC(=O)CC1C (centres undefined) | -0.7%
COc1ccc(NC(=O)c2c(NC(=O)CNCc3ccco3)sc3c2CCC3)c(OC)c1 | 0.7%
CCC1=C(OC(=O)N(CC)CC)N2C(=O)OC(=NCCc3c[nH]c4ccccc34)[C@]2(Cc2ccccc2)[C@H]2C1=CC[C@H]1C(=O)N(CC(=O)OC)C(=O)[C@H]12 | 3.7%

Random excerpt: 2 entries already listed.
SMILES | AID923
CCOc1cc(-c2nnc(-c3ccco3)o2)cc(OCC)c1OCC | -3.8%
CC(C)C(C)/C=C/C(C)C1CCC2C3=CCC4CC(=O)CC[C@@]4(C)C3CC[C@]21C (some centres undefined) | -0.6%

Going on with the list:
SMILES | AID923
C=CC(C1=CC(=O)C(OC)=C(OC)C1=O)c1ccccc1 (centres undefined) | -0.6%
COc1ccc(OC)c(NC(=O)CS(=O)(=O)Cc2nc(-c3ccccc3C)oc2C)c1 | -1.2%
CCC1=C2CC[C@H]3C(=O)NC(=O)[C@H]3[C@H]2[C@@]2(C)C(=NCC3CC3)OC(=O)N2C1=O | 0.6%
c1ccc(-c2cc(-c3nc(-c4ccccn4)no3)c3ccccc3n2)cc1 | 2.7%
CCN1CCCC(OC(=O)C(c2ccccc2)c2ccccc2)C1 (centres undefined) | 0.9%
COc1ccc(CNC(=O)c2ccc(CN3CCOCC3)cc2)cc1 | -0.1%
Cc1nc(-c2cccc(N)c2)cs1 | -4.1%
CCCOc1ccc(C(=O)Nc2ccc(N(C)C)cc2)cc1 | -2.1%
C=C(C)C1COc2cc3oc(=O)ccc3cc2O1 (centres undefined) | -1.7%
NCC1O[C@H](O[C@@H]2C(O)[C@H](O[C@H]3OC(CO)C(O)C(N)C3O)[C@@H](N)C[C@H]2N)[C@@H](N)CC1O (some centres undefined) | -1.1%
Cc1ccccc1CSc1nnc(Cn2c(=O)sc3ccccc32)n1C | -1.3%
COC(=O)c1ccc(C(NC(=O)OCc2ccccc2)/C(I)=C/[C@@H](C)C(=O)NCc2ccncc2)cc1 (some centres undefined) | 1.7%
COC(=O)c1cc(OC)c(OCc2cc(C(=O)OC)oc2C)c(OC)c1 | 4.6%
c1ccc(CSc2nnc3c(n2)OC(c2ccco2)Nc2ccccc2-3)cc1 (centres undefined) | -0.6%
C[C@H]1C2=C3C(C[C@H]4C(=O)N(c5ccccc5)C(=O)[C@H]4[C@H]3[C@@]3(Cc4ccccc4)C(=NCCc4c[nH]c5ccccc45)OC(=O)N3C2=O)[C@H]2C(=O)N(c3ccccc3)C(=O)[C@H]21 (some centres undefined) | 1.1%
CC1CC2(C)Oc3ccccc3C3OCC1(COC(=O)Nc1ccccc1)C(C)C32 (centres undefined) | 1.3%
CCCn1c(=O)[nH]c2nc(-c3ccc(S(=O)(=O)O)cc3)[nH]c2c1=O | -1.0%
COc1cc(OC)c2c(=O)c(-c3ccc4c(c3)OCO4)coc2c1 | 1.4%
Cn1c(N)cc(=O)n(Cc2ccccc2)c1=O | -1.1%
NC(C(=O)O)[C@@H]1CC(Cl)=NO1 (some centres undefined) | -4.2%
Cc1c(NC(=O)OCCSc2nc(N(C)C)nc(N(C)C)n2)sc(=S)n1C | -1.8%
CCC1=C(OC(=O)N(CC)CC)N2C(=O)OC(=NCCc3c[nH]c4ccccc34)[C@]2(C)[C@H]2C1=CC[C@H]1C(=O)NC(=O)[C@H]12 | -0.7%
COC(=O)[C@@H]1C[C@@]2(O)[C@H](O)[C@H](O)[C@H](O)C[C@H]2N1C/C=C/c1ccccc1 | -0.3%
COC1CC(O[C@H]2/C(C)=C/CC3CC(C[C@]4(CCC(C)C(C5CCCCC5)O4)O3)OC(=O)[C@H]3C=C(C)/C(=N/O)C4OC/C(=C\C=C\[C@@H]2C)[C@@]43O)OC(C)C1O (some centres undefined) | 0.2%
CC(=O)OCC1OC(C#Cc2ccc(F)cc2F)C=CC1OC(C)=O (centres undefined) | 1.5%[11.5 µM]
CC(=O)OCC1OC(n2c(Br)nc3c(=O)[nH]c(N)nc32)C(OC(C)=O)C1OC(C)=O (centres undefined) | 0.1%
Oc1cc(O)c2c(c1)OC(c1cc(O)c(O)c(O)c1)C(O)C2 (centres undefined) | -2.0%
S=C(c1ccc(-c2ccccc2Cl)o1)N1CCOCC1 | -0.8%
COC(=O)[C@@H]1C[C@H]2CC[C@H](O)C[C@H]2N1Cc1ccccc1OS(=O)(=O)c1ccc(C)cc1 | 0.9%
CC(=O)OC1CCC2C3CCc4cc(O)ccc4C3CCC12C (centres undefined) | 3.0%
CCC1=C(OC(=O)N(CC)CC)N2C(=O)OC(=NCCOC)[C@]2(C)[C@H]2C1=CC[C@H]1C(=O)NC(=O)[C@H]12 | 6.0%
O=C(NC1CCCCCC1)C1CCCN(S(=O)(=O)c2cnc[nH]2)C1 (centres undefined) | 5.7%
OC1C2COC(O2)[C@H](O)C1O (some centres undefined) | -1.2%
C#CCCCCCCCCCCCC(O)CC(O)CO (centres undefined) | -0.8%
CCOc1ccccc1N(CC(=O)Nc1ccc(C)cc1)S(C)(=O)=O | 1.4%
O=C(/C=C/c1ccccc1)c1ccc(O)cc1 | -0.1%
Cc1c(Nc2nc3ccccc3nc2N2CCN(c3ccccc3)CC2)c(=O)n(-c2ccccc2)n1C | 13%
CCN(c1cccc(C)c1)c1ncnc2nc[nH]c12 | -2.5%
CN1C(=O)CCC1c1cccnc1 (centres undefined) | -0.9%&-1.6%
Nc1ncnc2c1nc(Br)n2C1OC(CO)C(O)C1O (centres undefined) | -0.4%
NCCCNCCCCN(CCCN)/[N+]([O-])=N/O | -3.3%
Clc1ccc(C2[C@H]3CN(Cc4ccc(-c5ccccc5)cc4)[C@H](c4ccccc4)C34CC2(c2ccccc2)C4)cn1 (some centres undefined) | 0.7%
